Compound activity as filed in PubChem.
FGF22 binding – binders of recombinant human FGF22 by thermal shift; Q9HCT0; SYPRO orange fluorescence; percent of sucrose octasulfate shift, DMSO zero; calls only at 9.99 µM; 340,000 tested, 1.5% active; AID 651658;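 active means melting point raised past a set limit in the mean and every replicate; inconclusive means no clear call; three in four hits are not shown here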
Target sequence (Q9HCT0 whole entry, looked up): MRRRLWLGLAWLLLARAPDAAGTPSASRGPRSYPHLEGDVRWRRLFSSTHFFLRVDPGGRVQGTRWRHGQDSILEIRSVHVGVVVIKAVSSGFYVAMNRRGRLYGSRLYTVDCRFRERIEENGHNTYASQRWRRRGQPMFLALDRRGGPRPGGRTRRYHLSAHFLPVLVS
Calb FLC – C. albicans growth modulation with fluconazole; 300,000 tested, 0.57% active; growth inhibition, % (concentration not given with the values); C. albicans CaCi-2 (fluconazole-resistant clinical isolate) + fluconazole, Alamar Blue growth, 48 h;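 active means most replicates above 75%; inconclusive means exactly half above 75%; inactive means most below 75%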;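 further: all wells also contain fluconazole at 8 µg/ml as a sub-toxic cotreatment; 0% = median of DMSO wells and 100% = median of geldanamycin control wells; wells of about 8 µL received 7.5 nL stock; the first replicate is given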
RanGTP-Imp inh – disruptors of Ran-importin-beta complex formation – biochemical, FRET, CFP-Ran, YFP-importin-beta, homogeneous, primary screen; cell-free CFP-Ran/YFP-importin-beta FRET ratio; AID 2216; 300,000 tested, 1.1% active; inhibition, % (no concentration beside the values);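 active means most replicates above 15%; inconclusive means exactly half above 15%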;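 further: 0% = DMSO wells and 100% = Ran loaded with GDP instead of GTP; wells of about 40 µL received 100 nL stock; the first replicate is given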
AF4-AF9 inh – blocks AF4 peptide binding to human AF9; AlphaScreen, biotin-AF4 peptide binding to FLAG-AF9; inhibition, % at 10 µM; 350,000 tested, 0.47% active;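 active means every replicate reaching a set inhibition limit, whatever the replicate mean, cut at about 25% in these data; inconclusive means mean inhibition reaches that limit but some replicates miss it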;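 further: 0% = plate neutral control median and 100% = total signal loss; the record names both 10 and 1 µM as test concentration; the first replicate is given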
Target sequence (P42568 whole entry, looked up): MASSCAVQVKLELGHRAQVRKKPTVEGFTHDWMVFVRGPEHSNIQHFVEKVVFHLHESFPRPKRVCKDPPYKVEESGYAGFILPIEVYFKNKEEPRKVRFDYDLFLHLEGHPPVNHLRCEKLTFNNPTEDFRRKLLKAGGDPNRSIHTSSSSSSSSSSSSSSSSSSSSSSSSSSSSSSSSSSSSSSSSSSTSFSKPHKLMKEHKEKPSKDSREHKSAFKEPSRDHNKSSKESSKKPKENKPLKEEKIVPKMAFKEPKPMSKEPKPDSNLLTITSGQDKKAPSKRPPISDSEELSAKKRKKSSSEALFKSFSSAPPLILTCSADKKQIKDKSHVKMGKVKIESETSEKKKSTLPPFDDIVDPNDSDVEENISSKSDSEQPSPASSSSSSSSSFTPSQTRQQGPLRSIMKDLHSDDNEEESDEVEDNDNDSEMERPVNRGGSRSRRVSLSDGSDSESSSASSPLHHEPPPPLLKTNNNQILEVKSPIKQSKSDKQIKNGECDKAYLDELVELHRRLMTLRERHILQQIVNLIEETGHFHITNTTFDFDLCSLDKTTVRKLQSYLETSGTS
ALR inh – human ALR oxidase inhibition via reduced H2O2. P55789. purified ALR, DTT oxidation, H2O2 HRP-luminol luminescence. inhibition, % (test concentration not listed). 290,000 tested, 3.8% active. AID 485317;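 active means mean and each replicate at 75% or more; inconclusive means only one of the two met; inactive means neither met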;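 further: stock transfer was 7.5 nL into about 7.5 µL; 0% = neutral wells and 100% = wells with inactivated enzyme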
Target sequence (P55789 whole entry, looked up): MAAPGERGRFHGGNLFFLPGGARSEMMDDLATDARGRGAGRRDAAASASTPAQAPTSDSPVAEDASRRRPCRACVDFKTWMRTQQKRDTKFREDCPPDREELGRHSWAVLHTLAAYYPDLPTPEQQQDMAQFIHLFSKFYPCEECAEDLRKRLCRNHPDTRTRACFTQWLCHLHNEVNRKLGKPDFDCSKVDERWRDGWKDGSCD
Beta cell apopt – beta cell apoptosis inhibition | protection from apoptosis, % (concentration not given with the values) | 300,000 tested, 0.8% active | INS-1E cytokine-induced death, ATP luminescence, 48 h; percent of positive-control rescue, neutral wells zero;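 active means all replicates at 75% or more, or half of them and the mean; inconclusive means half reach 75% but not the mean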;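 further: 0% = cytokine-treated negative control wells and 100% = positive control rescue; higher means more ATP so stronger rescue from cytokine killing; wells of about 40 µL received 100 nL stock; the first replicate is given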
Ecoli rRNA inh – selective bacterial rRNA inhibition in E. coli | E. coli WT GFP vs humanized-ribosome RFP mutants, fluorescence, 24 h; hits give low values; DMSO median 0, no signal -100 | GFP signal change (wild-type ribosome), % (test concentration not listed) | 350,000 tested, 1.6% active | AID 720706;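 active means significant combined selectivity score with lowered wild-type GFP, culture density cut under 30%, mutant RFP and density less affected; inactive means any of these conditions unmet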; further: one replicate is shown; some compounds called inactive have numbers as strong as hits
T cruzi repl – T. cruzi replication inhibition; inhibition, % (no concentration beside the values); T. cruzi beta-gal in NIH3T3, luminescence, 90 h; 300,000 tested, 1.4% active; AID 1885;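 active means mean inhibition across valid replicates above about 55%, limit read from the data; inconclusive means mean below that limit but half or more replicates reach it; inactive means mean below it, under half of replicates reach it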;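 further: signal also drops with host cell toxicity which is not excluded here; 0% = plate median of DMSO wells and 100% = zero luminescence signal; higher percent means less beta-gal luminescence so fewer parasites; stock transfer was 50 nL into about 50 µL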
Ecoli rRNA inh OD600 – further read-out of Ecoli rRNA inh, marked with its call; OD600 change, %; measured here: OD600 growth;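 optical density of the mix in the first replicate; 0 = DMSO median and -100 = no signal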
Ecoli rRNA inh RFP – also measured in Ecoli rRNA inh; calls as there; RFP signal change, %; measured here: RFP humanized mutant strains;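 first replicate; 0 = DMSO median and -100 = no signal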
An asterisk follows results filed as active; i = inactive; ? = inconclusive; . = not tested or not shown. This is a subset; the hit share may differ from the screen's.

molecule	FGF22 binding	Calb FLC	RanGTP-Imp inh	AF4-AF9 inh	ALR inh	Beta cell apopt	Ecoli rRNA inh	Ecoli rRNA inh OD600	Ecoli rRNA inh RFP	T cruzi repl
CCOc1ccc2nc(SCc3ccc(CC(=O)O)cc3)c(C#N)cc2c1	i	-5	2.8	-1.8	9	2	-25	-27	-5.2	-4
COc1cc(OC)nc(NC(=O)CS(=O)(=O)c2ccccc2)n1	.	3	?	.	1	-6	.	.	.	-6
CCC(C)C(Nc1ncnc2scc(-c3ccccc3)c12)C(=O)O (stereo not drawn)	i	-2	0.9	1.9	-23	-3	7	-4	4.5	-8
CN(C)CC(=O)c1c(N)n(Cc2ccccc2)c(=O)n(C)c1=O	i	-19	-0.5	2.1	-6	-3	5	-3	1.8	-25
O=C(CCS(=O)(=O)c1ccccc1)Nc1ccccc1N1CCOCC1	i	15	2.8	1.1	9	0	10	2	3.4	-10
O=c1c2[nH]c3cccc(Cl)c3c2ncn1CCN1CCCCC1	.	0	-1.6	.	-7	-7	.	.	.	19
CCCNc1c(NC(=O)c2cccs2)c(=O)oc2ccccc12	i	-1	4.2	-2.3	4	-1	12	8	1.5	-5
O=C(CSC1=NCCN1)C1COc2ccccc2O1 (stereo not drawn)	.	-35	4.8	.	93*	-7	.	.	.	4
O=C(CN1CCOCC1)Nc1cccc(Br)c1	.	10	8.9	.	-9	1	.	.	.	-11
CS(=O)(=O)N1CCc2cc(C(=O)N3CCN(c4ccccc4F)CC3)ccc21	i	-2	-0.5	-4.7	-2	2	-3	-8	-3.6	0
CN1CCN(NC(=O)Nc2cc(Cl)cc(Cl)c2)CC1	i	10	2.6	-0.3	-20	4	-32	-33	0.0	50
CCOc1ccc(C(=O)SC2=NCCS2)cc1	.	-10	0.4	.	10	.	.	.	.	-12
O=C(CCCn1c(=O)[nH]c2cc(Cl)ccc2c1=O)NCCC1=CCCCC1	.	34	-1.4	.	.	-6	.	.	.	1
O=C(COc1cccnc1[N+](=O)[O-])Nc1cc(Cl)ccc1Cl	i	.	.	-1.3	-3	-1	-2	13	-1.4	.
Cc1ccc(S(=O)(=O)N2CCCCC2)cc1NC(=O)c1cc2ccccc2o1	i	.	.	-4.6	0	-1	-6	-8	-0.6	.
Cc1cc(=O)oc2cc(OCC(=O)NC3CCCC3)ccc12	i	37	?	-0.3	-11	1	-10	9	8.7	-6
CCN(CC)CCOC(=O)c1ccccc1Br	i	31	8.5	-0.9	3	-4	16	12	2.3	-16
O=C(Nc1ccc(C(=O)N2CCCC2)cc1)Nc1ccc(Cl)cc1Cl	i	1	-1.2	-6.3	-3	-4	10	6	-1.6	-9
c1ccc(Cc2nnc3sc(C4COc5ccccc5O4)nn23)cc1 (stereo not drawn)	i	18	0.8	-19	-1	-1	-5	-5	-1.2	0
Cc1ccsc1/C=N/NC(=O)Nc1ccccc1	i	12	1.5	-1.5	.	3	7	9	6.8	4
Cc1ccc(C)c(NS(=O)(=O)c2cc(C(=O)NCc3ccccn3)ccc2C)c1	i	-2	1.6	-1.4	4	-4	-24	-30	-2.5	21
COc1ccc(C(CC(=O)NCCCN2CCOCC2)NS(=O)(=O)c2ccc(C)cc2)cc1 (stereo not drawn)	.	-4	5.0	.	10	-6	.	.	.	5
CCOC(=O)C1=NN(C(=O)c2ccccc2)C(O)(c2ccc(C)cc2)C1 (stereo not drawn)	i	10	?	-0.4	11	-8	-10	-5	1.0	-12
Cc1cccc(OCCCC(=O)Nc2ccc(N(C)C)cc2)c1	i	1	-0.3	4.0	92*	-2	-2	9	-1.4	13
CN(C(=O)CNc1ccccc1Cl)C1CCS(=O)(=O)C1 (stereo not drawn)	i	.	.	3.1	-1	2	13	6	0.4	.

Other records follow:
molecule	FGF22 binding	Calb FLC	RanGTP-Imp inh	AF4-AF9 inh	ALR inh	Beta cell apopt	Ecoli rRNA inh	Ecoli rRNA inh OD600	Ecoli rRNA inh RFP	T cruzi repl
Cc1ccc(NC(=O)Cn2c(=O)c3cccn3c3ccccc32)c(C)c1	i	13	0.9	0.1	-4	3	-4	2	-4.3	3
Cc1c(C(=O)Nc2ccccc2[N+](=O)[O-])csc1-c1ccccc1	.	1	?	.	.	7	.	.	.	5
COc1ccccc1OCCNC(=O)c1ccco1	i	-8	-2.5	0.6	0	0	8	1	-0.8	-12
COc1ccc(NS(=O)(=O)c2ccc(C)c(C(=O)NCc3cccnc3)c2)cc1	i	-6	4.2	0.0	-1	-5	0	-5	1.8	-4
CCn1nc(CC(=O)Nc2ccc(-n3cnnn3)c(OC)c2)c2ccccc2c1=O	.	-13	2.1	.	-2	3	.	.	.	-7
Cc1ccccc1N1CCN(S(=O)(=O)c2ccccc2)CC1	.	3	4.9	.	1	-5	-11	-30	-6.2	-4
COc1ccc(-n2c(SCC(=O)NCCCN3CCCC3=O)nnc2C(C)N2CCCCC2)cc1 (stereo not drawn)	i	3	3.4	-1.5	-10	-4	4	4	2.5	1
CN(C(=O)CCNC(=O)Cn1cnc2ccccc2c1=O)c1ccc(F)cc1	i	5	-2.9	-5.1	1	0	5	6	-1.7	-6
C[C@@H](C(=O)Nc1nc2ccccc2s1)N1C(=O)C2CC=CCC2C1=O (stereo partly drawn)	i	-14	-2.1	0.0	.	-5	-15	-3	1.4	-12
COc1cc(C(F)(F)F)nc(-c2ccccn2)n1	i	-2	-5.3	-2.2	-22	-2	16	6	0.8	7
Nn1c(Cc2cccc3ccccc23)nnc1SC1CCOC1=O (stereo not drawn)	.	-5	6.7	.	.	-4	.	.	.	-6
O=C(NCCc1ccc(F)cc1)c1cc(=O)c2ccccc2o1	i	-12	-0.7	1.0	-3	0	4	9	-1.6	-8
COC(=O)c1sc(S(=O)(=O)N2CCC(C(=O)O)CC2)c(C(=O)OC)c1C	.	-3	-3.4	.	1	-2	.	.	.	-9
CC(C)Nc1nc(Cl)nc(NC2CCCCC2)n1	i	6	3.0	-4.1	-2	65	-2	-1	-2.7	14
CC1(C)CC(C(=O)NCCC(c2ccccc2)c2ccco2)CCO1 (stereo not drawn)	i	-19	-2.3	-7.9	.	-6	8	-2	-10	-10
CNc1cnn(-c2ccc(C)cc2)c(=O)c1Sc1ccc(C)cc1	i	?	3.9	-1.0	2	1	22	20	0.3	-12
C/C(=N\NC(=O)c1cc(C)nc2ccccc12)c1ccncc1	i	-13	3.3	-2.5	-1	-3	7	6	-0.7	-4
COC(=O)c1[nH]c2ccc(C)cc2c1NC(=O)CN1CCN(C(=O)c2ccccc2)CC1	.	10	-5.8	.	-1	6	.	.	.	7
COc1ccc(CNC(=O)CN2C(=O)C(C)N(c3ccc(C)cc3)C2=O)cc1 (stereo not drawn)	.	28	-1.2	.	1	-1	.	.	.	4
O=C(CN(Cc1ccccc1)S(=O)(=O)c1ccc(F)cc1)NCc1ccncc1	i	-7	?	3.9	1	-4	2	-3	2.6	0
COc1ccc(OC)c(-c2c(=O)n(OCc3ccccc3Br)c3ccccc3[n+]2[O-])c1	.	9	1.6	.	-4	3	.	.	.	17
CCOc1ccc(NC(=O)Cc2ccc(NC3=NC4CS(=O)(=O)CC4S3)cc2)cc1 (stereo not drawn)	i	1	4.8	-2.1	4	-3	1	7	-1.1	0
COc1ccc(CCNC(=O)C2CC(=O)N(c3ccc(Br)cc3)C2)cc1OC (stereo not drawn)	i	7	3.6	-1.3	0	-1	6	0	0.6	-16
COc1nc(OC)nc(N2CCC(NC(=O)C(Cc3cccc(OC)c3OC)NC(C)=O)CC2)n1 (stereo not drawn)	i	3	-1.3	-2.1	-13	-9	-2	-1	-2.1	10
O=C1Cc2ccccc2Sc2ccccc21	.	-13	1.3	.	-12	-3	.	.	.	6

Carrying on.
molecule	FGF22 binding	Calb FLC	RanGTP-Imp inh	AF4-AF9 inh	ALR inh	Beta cell apopt	Ecoli rRNA inh	Ecoli rRNA inh OD600	Ecoli rRNA inh RFP	T cruzi repl
c1ccc(-c2noc(-c3ccccc3-c3ccccc3)n2)cc1	.	1	1.5	.	-10	1	5	7	-3.7	7
CCn1c(NC2CCCCC2)nc2ccccc21	.	-3	?	.	14	3	.	.	.	5
COc1ccccc1N1CCN(C(=O)c2ccc(-c3ccc(Cl)cc3)o2)CC1	i	.	.	5.8	-1	17	-26	-43	18	.
CN(c1ccccc1)S(=O)(=O)c1ccc(NC(=O)COc2ccccc2)cc1	i	13	1.2	-0.3	44	.	-36	-42	-8.8	7
COc1cccc(-n2nnc3c(=O)n(Cc4cccc(F)c4)cnc32)c1	.	-27	2.6	.	-1	-5	.	.	.	4
Cn1cc(SCC(N)=O)c2ccccc21	i	3	?	-0.1	.	2	4	11	-5.2	-24
CCCn1c(SCC(=O)NCCc2ccc(OC)c(OC)c2)nc2c1c(=O)n(C)c(=O)n2C	.	29	4.3	.	-7	-6	.	.	.	-7
CN(CCC1CCCCO1)C(=O)CCc1nnc(Cc2c[nH]c3ccccc23)o1 (stereo not drawn)	i	-8	-5.7	2.5	-3	-2	7	8	0.4	0
O=C(Cc1cccs1)Nc1nncs1	.	-6	-2.3	.	-5	0	.	.	.	-1
Cc1ccnc(SCC(=O)c2ccc(Br)cc2)c1C#N	.	5	3.7	.	-9	0	.	.	.	74*
O=C(CSc1ccccc1)Nc1ccc(N2CCOCC2)c(F)c1	i	14	2.9	-0.3	0	1	1	-5	-2.9	6
CCN1C(c2ccc(F)cc2)=CS/C1=C(\C#N)c1nnc2n1-c1ccccc1SC2	.	8	?	.	-3	0	.	.	.	15
CC1CCCCN1C(=O)Cn1c(=O)n(-c2ccc(F)cc2)c(=O)c2sccc21 (stereo not drawn)	i	-2	4.9	-4.4	-2	-3	2	1	4.5	1
CCOC(=O)c1ccc(NCc2nc3ccccc3n2C)cc1	.	-9	-2.1	.	0	-1	.	.	.	-6
COc1ccc(F)cc1S(=O)(=O)NCCCn1ccnc1	i	17	0.3	0.2	-2	1	12	6	3.7	-11
O=C(COC(=O)c1cnccn1)c1ccc(C2CCCCC2)cc1	i	-3	2.9	-45	1	1	-2	5	-1.9	11
CCCC(=O)NC(NC(=S)Nc1c(C)n(C)n(-c2ccccc2)c1=O)C(Cl)(Cl)Cl (stereo not drawn)	.	-6	5.0	.	-2	-5	.	.	.	0
Cc1cccc(-n2c(O)c(/C=N/NC(=O)c3ccccc3Cl)c3ccccc3c2=O)n1	.	?	1.8	.	96*	3	.	.	.	2
COc1ccc(N(C)S(=O)(=O)c2cccc(C(=O)NCC(c3cccs3)N(C)C)c2)cc1 (stereo not drawn)	i	-4	.	2.8	-2	-1	0	-11	-2.5	7
Cc1ccc(N2C(=O)C3C(c4ccccc4)(C2=O)C3(c2ccccc2)c2ccccc2)cc1 (stereo not drawn)	.	-8	-3.2	.	-4	3	.	.	.	40
C=C(C)CN1CCN(S(=O)(=O)c2ccc(C)c(N(C)S(=O)(=O)c3ccc(C)cc3)c2C)CC1	i	-1	4.2	-2.7	-2	15	.	.	.	42
